# AID923: qHTS Assay for Allosteric/Competitive Inhibitors of Caspase-1: Spectroscopic Profiling in AFC Spectral Region | AID 923, 2007 | compound fluorescence, AFC spectral region (405/520 nm); almost no hit is shown here | actives 1.1% (n = 75,000) | Potency, µM (doses to about 57.5 µM), without a hit: at the top dose fluorescence increase, hits mostly activators; active = well fitted activation curve with a large enough effect; inconclusive = small, poorly fitted or top-dose-only effect;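 note: potency is the fitted concentration of half-maximal effect; 0% is about no effect; scaled to a free AFC standard on each plate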
#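 Titrations up to 57 uM read every 20 sec for 3 min (405/520 nm) with 50 nM caspase 1 and 5 uM Ac-WEHD-AFC, pH 7.5 HEPES buffer. Fluorescence-vs-time intercept gave baseline, scaled against on-plate AFC standard.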
# A488 autofl: compound fluoresces in the A488 spectral region; compound autofluorescence, A488 spectral region, dye equivalency; active compounds read high; max dye equivalency, M; actives 0.1% (n = 59,000); active = above 10 nM dye equivalent; inconclusive = 1 to 10 nM; inactive = 1 nM or less; about half of its hits are not listed in these tables;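 note: highest value over a series up to 38 µM; compound alone in buffer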
#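 Spectroscopic profiling in the A488 region: compounds in pH 8.0 Tris (100 mM), 15 min RT, CCD imaging with 480 nm excitation and 540 nm emission; responses normalized against A488 dye standards.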
# TSHR ag: TSH receptor (human) agonism; P16473; HEK293-CNG-TSHR cells (CNG channel as cAMP sensor), membrane potential dye, cAMP; Potency, µM (doses to about 57.1 µM), inactives show at the highest dose activation, most hits filed as activators; actives 0.48% (n = 73,000); active = well fitted activation curve of enough size with the parental cells flat; inconclusive = any curve in the parental cells; inactive = parental cells flat and receptor cells flat or falling; note: potency is the fitted concentration of half-maximal effect; % of control where 0% means no effect; weak receptor curves with flat parental cells got no call and are not listed
# Target sequence (P16473 whole entry, looked up): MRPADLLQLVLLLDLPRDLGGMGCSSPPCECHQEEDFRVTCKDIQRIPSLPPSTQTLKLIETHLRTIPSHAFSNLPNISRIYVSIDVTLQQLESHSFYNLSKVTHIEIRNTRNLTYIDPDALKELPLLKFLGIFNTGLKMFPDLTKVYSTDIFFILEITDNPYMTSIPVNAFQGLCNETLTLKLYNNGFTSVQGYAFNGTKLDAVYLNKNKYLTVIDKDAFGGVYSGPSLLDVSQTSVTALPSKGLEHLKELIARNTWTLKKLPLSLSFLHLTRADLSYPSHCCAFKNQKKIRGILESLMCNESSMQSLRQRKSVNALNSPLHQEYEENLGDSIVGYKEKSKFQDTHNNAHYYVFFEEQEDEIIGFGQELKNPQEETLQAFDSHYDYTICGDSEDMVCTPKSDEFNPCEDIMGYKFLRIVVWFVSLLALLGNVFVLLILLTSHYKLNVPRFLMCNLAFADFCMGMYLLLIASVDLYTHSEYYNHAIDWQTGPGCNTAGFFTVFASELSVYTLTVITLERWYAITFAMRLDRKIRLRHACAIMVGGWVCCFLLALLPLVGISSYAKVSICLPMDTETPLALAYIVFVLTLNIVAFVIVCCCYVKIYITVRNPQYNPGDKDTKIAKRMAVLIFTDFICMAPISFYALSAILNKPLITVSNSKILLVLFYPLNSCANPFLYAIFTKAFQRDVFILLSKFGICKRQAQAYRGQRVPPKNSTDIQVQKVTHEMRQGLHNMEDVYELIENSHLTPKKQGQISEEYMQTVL
#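 HEK 293 cells stably expressing TSHR and a modified CNG channel, with CNG-only parental cells as counterscreen, were preloaded 60 min at room temperature with membrane potential dye containing 100 uM RO 20-1724. Compound exposure was 30 min, and depolarization was read as fluorescence at 590 nm.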
# A647 fluor: A647 region autofluorescence | Compound fluorescence, A647 channel (570/671 nm), Tris buffer | AID 592 | max dye-equivalent concentration, M | 59,000 tested, under 10 active; active means above 1 µM dye equivalent; inconclusive means 0.1 to 1 µM; inactive means 0.1 µM or less;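 note: values scaled relative to a standard on each plate; highest value over a series up to 38 µM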
#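 Spectral profiling of library compounds in pH 8.0 Tris: 15 min room-temperature incubation, single ex/em pair (570/671 nm), response normalized to Alexa 647 equivalents.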
# Resorufin autofl: resorufin region autofluorescence; Compound fluorescence, resorufin region 547/598 nm, buffer; active compounds read high; max dye-equivalent concentration, M; actives 0.04% (n = 59,000); active = above 10 nM dye equivalent; inconclusive = 1 to 10 nM; inactive = 1 nM or less; a few of its hits are not listed in these tables; note: highest value over a series up to 38 µM
#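 Dye-equivalent concentration values derive from comparing each well's 547/598 nm fluorescence against resorufin standards included on every plate. Incubation was 15 min at room temperature in 100 mM Tris, pH 8.0.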
# Starred values were filed as active, the others as inactive; i = inactive; ? = inconclusive; / = not tested or not shown; & = joins results of further samples; [ ] = another dose, or the depositor's remark.
# Preview, 7 compounds:
SMILES,AID923,A488 autofl,TSHR ag,A647 fluor,Resorufin autofl
COc1ccc(C(=O)CSc2nnc(C3CCCCC3)n2N)c(OC)c1,0.2%,i,-4.7%,1e-09,i
Cn1c(=O)c2c(nc(SCC(=O)NCc3ccc4c(c3)OCO4)n2Cc2ccccc2)n(C)c1=O,-2.0%,i,?,7.6e-09,i
O=C(CN1CCN(S(=O)(=O)c2ccc(F)cc2)CC1)Nc1ccc(Cl)c(C(F)(F)F)c1,0.2%,i,-6.5%,3.77e-08,i
O=C(NCCc1ccccc1)NC1CCCCC1,0.5%,i,/,3.6e-09,i
COC(=O)C12CC3(CCC4C5C(C(OCc6ccccc6)C41)C52)OCCO3 (centres undefined),3.3%[11.5 µM],/,1.9%[11.4 µM],/,/
Cc1ccc(-n2c(SCC(=O)NCC3CCCO3)nnc2-c2ccoc2C)cc1 (centres undefined),-0.6%,i,/,7e-09,i
CON(C)C(=O)c1nnc2c3ccccc3n(S(=O)(=O)c3ccc(C)cc3)c2n1,-2.3%&2.5%[11.5 µM],/,3.4%&-10.0%[11.4 µM],/,/

# This part in full (from the top)
SMILES,AID923,A488 autofl,TSHR ag,A647 fluor,Resorufin autofl
COc1ccc(C(=O)CSc2nnc(C3CCCCC3)n2N)c(OC)c1,0.2%,i,-4.7%,1e-09,i
Cn1c(=O)c2c(nc(SCC(=O)NCc3ccc4c(c3)OCO4)n2Cc2ccccc2)n(C)c1=O,-2.0%,i,?,7.6e-09,i
O=C(CN1CCN(S(=O)(=O)c2ccc(F)cc2)CC1)Nc1ccc(Cl)c(C(F)(F)F)c1,0.2%,i,-6.5%,3.77e-08,i
O=C(NCCc1ccccc1)NC1CCCCC1,0.5%,i,/,3.6e-09,i
COC(=O)C12CC3(CCC4C5C(C(OCc6ccccc6)C41)C52)OCCO3 (centres undefined),3.3%[11.5 µM],/,1.9%[11.4 µM],/,/
Cc1ccc(-n2c(SCC(=O)NCC3CCCO3)nnc2-c2ccoc2C)cc1 (centres undefined),-0.6%,i,/,7e-09,i
CON(C)C(=O)c1nnc2c3ccccc3n(S(=O)(=O)c3ccc(C)cc3)c2n1,-2.3%&2.5%[11.5 µM],/,3.4%&-10.0%[11.4 µM],/,/
NCCc1ccn[nH]1,-0.3%[25.7 µM],i,2.3%[25.6 µM],1e-09,i
Cc1cc(Cc2cc(Cc3cc(C)cc(C(C)(C)C)c3O)c(C)cc2C)c(O)c(C(C)(C)C)c1,-1.4%[11.5 µM],i,-7.1%[11.4 µM],1e-09,i
CCC(C)NS(=O)(=O)c1ccc(OCC(=O)NCc2ccco2)cc1 (centres undefined),0.8%,i,0.5%,8.6e-09,i
O=c1c(-c2cc(F)cc(F)c2)nc2cncnc2n1Cc1ccc(F)cc1,4.9%,i,?,3.65e-08,i
Cc1ccc(S(=O)(=O)N(c2cccc(C(F)(F)F)c2)C2C=CS(=O)(=O)C2)cc1 (centres undefined),-0.7%,/,-5.7%[11.4 µM],/,/
COC(=O)CNC(=O)C1(CC(C)C)C=CCN1C(=O)c1ccccc1 (centres undefined),2.9%,/,6.0%,/,/
COC(=O)CC1Oc2ccccc2N(Cc2ccc(C)cc2)C1=O (centres undefined),-0.4%,i,-1.9%[11.4 µM],2.74e-08,i
CSCCC(NC(=O)C1CC1)c1nc2ccccc2[nH]1 (centres undefined),-0.1%,i,?,1.6e-09,i
COC(=O)CSc1nnc(-c2cccc(NC(=O)c3ccc(C)cc3)c2)n1C,-0.5%,i,6.2%,1e-09,i
CC(=O)CC1(C)OC(N)=C(C#N)C1(C#N)C#N (centres undefined),2.8%,i,?,3.17e-08,i
CCN1CCC[C@H]1CNC(=O)c1cc(S(N)(=O)=O)ccc1OC,2.3%,i,?,8.2e-09,i
N[C@@H]1[C@@H]2[C@@H]3C[C@H]4N(CC[C@@]14C(=O)C(=O)O)CC3=CCO[C@@H]2CC(=O)O,1.1%[11.5 µM],i,11.9%[11.4 µM],2.2e-09,i
Cc1c(C(=O)NC2CCCc3ccccc32)oc2ccc(S(=O)(=O)N3CCOCC3)cc12 (centres undefined),1.3%,i,11.9%[11.4 µM],2.48e-08,i
CC(C)(C)N1C(=O)[C@H]2[C@H]3[C@H](O)[C@H](O)C/C(=N/OC[C@@H](O)COCc4ccco4)[C@@H]3CC[C@@H]2C1=O,8.8%[11.5 µM],/,-0.2%[11.4 µM],/,/
O=C(Cn1nc(Cc2cccnc2)c2ccccc2c1=O)NCC1COc2ccccc2O1 (centres undefined),0.0%,/,-3.7%,/,/
O=C(CCCCCN1C(=O)c2ccccc2C1=O)Nc1nccs1,0.6%,i,8.9%,1e-09,i
COc1ccccc1N1CCN(C(CNS(=O)(=O)c2ccccc2)c2cccnc2)CC1 (centres undefined),2.4%,i,0.2%,1e-09,i
COC(=O)CN1C(=O)C(O)(CC(=O)c2ccc(C)cc2)c2ccccc21 (centres undefined),-0.7%,i,1.3%,5.7e-09,i
Cc1nn(Cc2ccccc2Cl)c2sc(C(=O)OC3CCCC3=O)cc12 (centres undefined),-1.3%,i,2.3%[11.4 µM],1.52e-08,i
CCOC(=O)C1CCc2sc(N)c(C#N)c21 (centres undefined),-0.7%,i,1.9%,1e-09,i
CCN(CCCNC(=O)CCCN1C(=O)COc2ccc(C)cc21)c1cccc(C)c1,-3.0%,i,10.6%,2.31e-08,i
CN(C)S(=O)(=O)c1ccc(N2CCCC2)c(C(=O)Nc2ccccc2N2CCOCC2)c1,0.3%,i,?,1.27e-08,i
Cn1c(C(=O)N2CCCC(C(=O)NCc3cccs3)C2)cc2sccc21 (centres undefined),-1.5%,i,25.1µM*,2.69e-08,i
CC1(O)c2ccccc2C(=O)N1CCc1ccccc1F (centres undefined),-0.5%,i,4.6%[11.4 µM],4.4e-09,i
CC(C)(C)OC(=O)NCCc1nnc(SCC(=O)Nc2cccc(Cl)c2)o1,-1.8%,i,2.6%[11.4 µM],3.44e-08,i
CCn1c(SCC(=O)Nc2ccc(N(C)C)cc2)nnc1-c1cccc(C)c1,-0.5%,i,12.5%,1e-09,i
Cc1cccc(C)c1OCc1nnc(SCC(=O)Nc2nccs2)o1,2.0%,/,-3.1%,/,/
C=CCOc1cccc(C2C(C(=O)c3ccc(C)o3)=C(O)C(=O)N2Cc2ccncc2)c1 (centres undefined),1.2%,i,2.0%,4.5e-09,i
CCn1cc(C(=O)O)c(=O)c2cnc(N3CCCC3)nc21,14.8%,i,0.9%[25.6 µM],1.9e-09,i
COc1ccccc1C1CC(c2ccccc2)Nc2ncnn21 (centres undefined),1.5%,i,?,2.6e-09,i
O=C(NCc1ccco1)C1CCCN1C(=O)NCc1ccccc1 (centres undefined),0.8%,i,-3.7%,1e-09,i
CCn1cc(C(=O)O)c(=O)c2cc3c(cc21)OCO3,1.0%,i,0.3%,1e-09&1.7e-09,i
c1ccc(-c2n[nH]c(-c3ccccn3)n2)nc1,-0.2%,i,-3.2%,1.26e-08,i
COc1ccccc1CN1CCCC2(CCNCC2)C1,-2.2%,i,9.6%,2.11e-08,i
Cc1ccccc1-n1nnc2c(=O)oc3ccccc3c21,3.7%,i,6.9%,2.4e-09,i
CNC(=O)c1ccc(Oc2ccc(C(=O)NC)cc2)cc1,-1.2%,i,?,1.11e-08,i
O=C(c1cc(-c2ccco2)nn1-c1cccc(Cl)c1)N1CCCCC1,-0.5%,i,/,3.84e-08,i
Cc1c2cc[n+](CCN3CCCCC3)cc2c(C)c2c1[nH]c1ccc(O)cc12,3.2%[11.5 µM],i,-1.5%[11.4 µM],1e-09,i
COC(=O)C/C=C\[C@@H](C)[C@@H](/C=N\OC[C@@H]1O[C@H](c2ccccc2)C=C[C@@H]1Oc1ccc(OC)cc1)OC,0.6%[11.5 µM],/,?,/,/
O=C(c1n[nH]c(=O)c2ccccc12)N1CCOCC1,-1.4%,i,-8.8%,1e-09,i
COc1ccc(C(C)=O)cc1COC(=O)c1c(C)noc1C,0.0%,i,6.1%,1.2e-09,i
C/C(N)=C(/C#N)C(=O)CSc1nnc(Nc2cccc(C)c2)s1,1.6%,i,5.9%,5.63e-08,i
COc1ccccc1N(CC(=O)Nc1cc(C)on1)S(=O)(=O)c1cccs1,0.0%,i,?,1.9e-08,i
CS(=O)(=O)c1ccc(C(=O)NC2CCOC2=O)cc1 (centres undefined),-1.3%,i,0.1%,2.25e-08,i
Cc1ccc(-n2c(Cc3cccn3C)nnc2SCC(=O)Nc2cc(C)on2)cc1,2.0%,i,6.8%,1.83e-08,i
COc1ccc(-n2c(Cc3cccn3C)nnc2SCC(=O)Nc2cccc(Cl)c2)cc1,3.2%,/,-5.0%,/,/
O=C(NCCN1C(=O)C2C3C=CC(C3)C2C1=O)Nc1cccnc1 (centres undefined),2.6%,/,8.2%,/,/
c1ccc2c(-c3ccncc3)c[nH]c2c1,-0.4%,i,4.8%,1e-09,i
COc1cccc(-n2c(SCc3c(C)noc3C)nnc2-c2cccc(S(=O)(=O)N(C)C)c2)c1,-1.5%,i,13.7%,3.92e-08,i
CCCc1cc(C(=O)N2CCN(S(=O)(=O)c3ccc(OC)c(OC)c3)CC2)cs1,1.0%,i,-1.1%,1e-09,i
Cn1c(=O)[nH]c(=O)c2c1nc(N1CCCCC1)n2CCOc1ccccc1,-0.8%,i,?,1.3e-09,i
O=C(Nc1ccccc1C(=O)N1CCOCC1)C1CCCO1 (centres undefined),-0.4%,i,6.3%,1.24e-08,i
COc1ccc(-c2nn(CC(=O)N(C)C)c(=O)c3ccccc23)cc1,3.0%,/,27.8%,/,/
# (listing goes on)
SMILES,AID923,A488 autofl,TSHR ag,A647 fluor,Resorufin autofl
CCOC(=O)c1ccc(OCc2nc(-c3cccs3)no2)cc1,0.7%,i,/,1.16e-08,i
CCOc1ccc(NC(=O)CSc2nc3ccccc3c(=O)n2CCNC(C)=O)cc1,-1.1%,i,-1.8%,1e-09,i
CN1CCN(c2ncnc3ccc(-c4ccc5c(c4)OCO5)cc23)CC1,-2.3%,i,18.6%,6.5e-09,i
c1cncc(-c2cc(-c3cc(-c4cccnc4)n[nH]3)[nH]n2)c1,1.1%[11.5 µM],i,3.6%[11.4 µM],2.8e-09,i
CC1CCN(C(c2cc3cc4c(cc3[nH]c2=O)OCO4)c2nnnn2CC2CCCO2)CC1 (centres undefined),0.0%,i,3.3%,4.07e-08,i
CC1CCN(c2ccc(NC(=O)c3cccnc3)cc2)CC1,-4.1%,i,-5.2%,1.39e-08,i
COC(=O)c1sccc1NC(=O)c1c(C)cc(=O)oc1C,/,i,/,3.02e-08,i
O=C(c1ccco1)N1CCN(C(=O)C2CCN(S(=O)(=O)c3cccc4nsnc34)CC2)CC1,1.0%,i,?,6.7e-09,i
O=C(Nc1cnc2ccccc2c1)c1ccncc1,2.7%,/,-18.6%,/,/
COc1ccc(CCNC(=O)CSc2nnc(-c3ccccc3)o2)cc1OC,-0.3%,i,6.2%,3.71e-08,i
CCOC(=O)N1CCN(S(=O)(=O)c2ccc(C(=O)Nc3nc4c(s3)CC(C)CC4)cc2)CC1 (centres undefined),1.0%,i,0.2%[11.4 µM],2.96e-08,i
COc1ccccc1OCCNC(=O)c1cccs1,1.0%,/,-1.0%,/,/
CCOc1cccc(-c2nnc3n2N=C(c2cc(OC)ccc2OC)CS3)c1,1.3%,/,?,/,/
CCCCCCn1c(SCC(=O)Nc2cc(C)on2)nc2ccccc2c1=O,0.3%,i,11.7%,3.22e-08,i
O=C(c1nc(-c2ccccc2)n(-c2ccccc2)n1)N1CCN(S(=O)(=O)c2ccccc2)CC1,-0.2%,i,18.0%,2.6e-09,i
COc1ccc(-c2nc(C#N)c(NC(C)C)o2)cc1,2.2%,i,-3.2%,1e-09,i
COc1ccc(-c2nnc(SCC(=O)c3cccs3)o2)c(OC)c1,0.1%,i,23.6%,1e-09,i
COC(=O)c1oc2ccc(Cl)cc2c1NC(C)=O,3.4%,i,14.0%,1.08e-08,i
CCOc1ccccc1NC(=O)Cn1nnc(C(=O)Nc2ccccc2Cl)c1N,1.9%,i,/,1e-09,i
Cc1ccc(C(=O)COC(=O)CCc2nc3ccccc3[nH]c2=O)cc1C,-0.5%,i,7.9%,1e-09,i

# A portion of the library; rates above refer to the full screens.
